# Bioassay records deposited in PubChem BioAssay by Sanford-Burnham Center for Chemical Genomics.
# HNF4A DNA FP: change in binding of human HNF4 alpha to DNA; 360,000 tested, 0.3% active; HNF4a-FITC DNA binding, fluorescence polarization, 1 h; P41235; AID 1224865; activity change, % at 10 µM; in the data active = activity change above about 30%, passing the limit was not always enough;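 also: controls were the assay level and a saturating level of protein; the project sought stronger binding though the title names inhibitors; some compounds called inactive have numbers as strong as hits; positive values seem to mean higher polarization but the record does not say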
# Target sequence (P41235 whole entry, looked up): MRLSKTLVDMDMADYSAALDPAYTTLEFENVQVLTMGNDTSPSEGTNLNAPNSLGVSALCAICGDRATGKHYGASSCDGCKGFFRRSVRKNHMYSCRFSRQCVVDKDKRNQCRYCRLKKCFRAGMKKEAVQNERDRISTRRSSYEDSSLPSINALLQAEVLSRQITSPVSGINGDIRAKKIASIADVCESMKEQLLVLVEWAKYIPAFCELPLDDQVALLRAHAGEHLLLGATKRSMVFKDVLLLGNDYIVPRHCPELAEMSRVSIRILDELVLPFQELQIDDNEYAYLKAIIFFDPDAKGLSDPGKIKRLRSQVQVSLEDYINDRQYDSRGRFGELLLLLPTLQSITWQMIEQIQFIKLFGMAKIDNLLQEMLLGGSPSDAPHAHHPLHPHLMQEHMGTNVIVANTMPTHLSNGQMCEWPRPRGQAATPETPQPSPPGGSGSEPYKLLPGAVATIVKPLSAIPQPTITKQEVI
# * marks the source's active call; other numbers are inactive results. These rows are one share of the data (hit frequency here may not be typical).
HNF4A DNA FP	canonical_smiles
0.5	COc1cc(C(=O)N2CCC2(C)C(=O)NC(C)C)cc(OC)c1OC (stereo unspecified)
4.4	CN(C)CCNc1nc(Oc2ccccc2)c2sccc2n1
-6.5	CCOC(=O)C1(C)CCCCN1C(=O)c1ccco1 (stereo unspecified)
-1.4	CCOC(=O)C1=CCC(c2ccc(C)cc2)N(S(=O)(=O)c2ccc(C)cc2)C1 (stereo unspecified)
5.8	CCCCN1C(=O)C(CC(=O)NC2CCCCC2)CC(C(=O)N2CCCCCC2)=C1C (stereo unspecified)
0.7	OC[C@@H]1CN(Cc2cccc(C(F)(F)F)c2)C[C@H](n2cnc3c(NCc4ccco4)ncnc32)O1
0.4	O=C(NCCc1ccccc1)C1Cc2c(-c3ccc(Cl)cc3)ccnc2O1 (stereo unspecified)
0.2	Nc1nc2ncccn2c1-c1ccccc1
-4.8	COC(=O)[C@@]1(Cc2ccc(F)cc2)[C@H]2c3cc(C(=O)N4CCCC4)n(Cc4cc(C)n(C)n4)c3C[C@H]2CN1C(=O)c1ccccc1
4.8	COc1ccccc1-c1ncn(Cc2cccc(-c3ccccc3)c2)c1CC(C)C
1.4	CCOC(=O)C1(C)CCCCCN1C(=O)c1ccc(N(C)C)cc1 (stereo unspecified)
3.3	CCOC(=O)C(C)Oc1cccc2c(=O)n(CC(=O)Nc3ccc(OC)cc3)ccc12 (stereo unspecified)

# Continuation.
HNF4A DNA FP	canonical_smiles
-4.9	CCc1nc2ccc(C(=O)NCCCn3ccnc3)cn2c1N(CC)CCN(C)C
0.0	CCOc1ccc(CCN2C(=O)C(=O)N([C@@H](CC(C)C)CN3CCC[C@H]3CN3C(=O)C(=O)NC[C@@H]3Cc3ccc(O)cc3)C[C@@H]2CC(C)C)cc1
0.9	CCNC(=O)C1CCCN(C(=O)c2ccc(OC)cc2)CC1 (stereo unspecified)
-1.4	CCNC(=O)c1cc2c(c(-c3cccc(-c4cncnc4)c3)n1)[C@H](CCO)N(C(C)=O)C2
-2.8	O=C(Nc1ccc2c(c1)OCO2)c1cc(C2CCCCN2C(=O)c2ccc3c(c2)CCO3)on1 (stereo unspecified)
-1.4	COC(=O)C1(C(=O)OC)c2ncccc2N(S(=O)(=O)c2ccc(C)cc2)C1CC(=O)c1ccccc1 (stereo unspecified)
-2.9	Cc1ccc(/C(O)=C2\C(=O)C(=O)N(C)C2c2ccccc2)cc1 (stereo unspecified)
2.9	Cc1ccccc1C(=O)N1CCC1(C)C(=O)NC(C)C (stereo unspecified)
-0.8	COc1cc(OC)c(C2C=CC(=O)CC2)c(OC)c1 (stereo unspecified)
0.1	CC1(C(=O)NS(=O)(=O)c2ccc(C#N)cc2)CCN1C(=O)c1ccccc1CCc1ccccc1 (stereo unspecified)
-0.8	CC(=O)Nc1cncc(-c2cnn(CC(C)C)c2)n1
-1.8	CN(C)C(=O)Nc1ccc(Cl)c(Cl)c1

# (next part)
HNF4A DNA FP	canonical_smiles
-1.0	CCOC(=O)C(=O)NCC1CCCN1S(=O)(=O)c1cccs1 (stereo unspecified)
1.9	O=C(Nc1ccc2c(c1)OCCO2)c1[nH]c(C(F)(F)F)nc1-c1ccccc1
1.8	C[C@@H]1CN([C@@H](C)CO)S(=O)(=O)c2ccc(-c3ccc(C#N)cc3)cc2O[C@@H]1CN(C)Cc1ccccn1
1.3	O=C(NCc1cccnc1)c1cc(C2CCCCN2S(=O)(=O)Cc2ccccc2)on1 (stereo unspecified)
3.1	CCCS(=O)(=O)NC(=O)C1(C)CCCN(C(=O)c2ccc3snnc3c2)C1 (stereo unspecified)
1.5	CC(C)c1cccc(-c2csc(C(O)c3cccc(Cl)c3)n2)c1 (stereo unspecified)
0.0	CCCCCC(=O)N1C[C@@H](O)[C@H](n2cc(-c3ccc(F)cc3)nn2)C[C@@H]1c1ccc(Cl)cc1
3.4	Cc1cc2nc(-c3nnnn3Cc3ccccc3)c(=O)[nH]c2cc1C
-9.3	Nc1[nH]c(C(=O)c2ccccc2)c(-c2ccncc2)c1C(=O)NCc1cccc2ccccc12
2.1	COCCCN1C(=O)C(CC(=O)NCCCN(C)C)CC(C(=O)N2CCOCC2)=C1C (stereo unspecified)
-2.2	CC1(C)OC(=O)C2=C(C[C@@H](C3CCCC3)O[C@@H]2c2ccc(Cl)cc2)O1
1.8	COc1ccc(OCCNC(=O)C2(C)CCN2Cc2ccc3ccccc3c2)cc1 (stereo unspecified)

# Continuation.
HNF4A DNA FP	canonical_smiles
-1.9	COc1cccc(C(NC(C)=O)c2nc(-c3cccc(C(=O)O)c3)cs2)c1 (stereo unspecified)
0.6	COc1cccc(-c2oc3c(c2C(=O)OCCN(C)C)C(O)CCC3)c1 (stereo unspecified)
4.0	CC(C)C1C(=O)N(Cc2cn(CCC3OCCO3)nn2)CCS(=O)(=O)N1Cc1ccc(-c2ccccc2C(F)(F)F)cc1 (stereo unspecified)
5.4	COc1cccc(-c2ccc(NC(=O)C3CCCN(Cc4cccc(C)n4)C3)cc2)c1 (stereo unspecified)
3.5	Cc1ccc(S(=O)(=O)N2[C@H](CC(=O)OCc3ccccc3)OC[C@@H]2C(C)C)cc1
-1.5	CN(c1ccc(C(=O)NCC2CCCO2)cc1)S(=O)(=O)c1ccc(Cl)cc1 (stereo unspecified)
0.7	CCCCN1C(=O)C(CC(=O)NC2CCCC2)CC(C(=O)N2CCCCCC2)=C1C (stereo unspecified)
-0.3	COc1cc(Cl)c(CNC[C@H]2O[C@@H](n3cnc4c(=O)[nH]c(N)nc43)[C@H](O)[C@@H]2O)c(Cl)c1O
-3.4	COc1ccc(CCCNC(=O)C2Cc3c(-c4cccc(C(C)=O)c4)ccnc3O2)cc1 (stereo unspecified)
1.8	CC(C)C[C@H]1CN([C@@H](CC(C)C)CN2CCCC2CN2C(=S)NC[C@@H]2Cc2ccccc2)C(=S)N1CCc1ccccc1 (stereo partly specified)
2.3	CCNC(=O)C1CCCN(C(=O)c2cc(F)ccc2C)CC1 (stereo unspecified)
2.6	OC(c1cccc(F)c1)c1ncc(-c2ccc(C(F)(F)F)cc2)[nH]1 (stereo unspecified)

# Look-ups from the list.
# CC(C)C1C(=O)N(Cc2cn(CCC3OCCO3)nn2)CCS(=O)(=O)N1Cc1ccc(-c2ccccc2C(F)(F)F)cc1 (stereo unspecified) | HNF4A DNA FP = 4.0
# COc1cccc(C(NC(C)=O)c2nc(-c3cccc(C(=O)O)c3)cs2)c1 (stereo unspecified) | HNF4A DNA FP = -1.9
# CN(c1ccc(C(=O)NCC2CCCO2)cc1)S(=O)(=O)c1ccc(Cl)cc1 (stereo unspecified) | HNF4A DNA FP = -1.5
# COc1cc(Cl)c(CNC[C@H]2O[C@@H](n3cnc4c(=O)[nH]c(N)nc43)[C@H](O)[C@@H]2O)c(Cl)c1O | HNF4A DNA FP = -0.3

# Next section:
HNF4A DNA FP	canonical_smiles
5.2	CC1(c2nnnn2Cc2ccccc2)CCC(=O)N1c1ccc(N2CCOCC2)cc1 (stereo unspecified)
1.5	CNc1ncnc2c1ncn2[C@H]1CN(CCN2CCOCC2)C[C@@H](CO)O1
2.0	COCCNC(=O)C1(C)CCCN(CCS(=O)(=O)c2ccc(C)cc2)C1 (stereo unspecified)
3.5	Cc1ccc2nc(C(C)(C)C)c(Cc3cccc(F)c3)n2c1
-0.8	c1ccc(-c2nc3c4ccccc4ccn3c2Cc2ccsc2)cc1
5.2	Cc1nc(NC(=O)C(C)(C)C)sc1C(=O)Cn1cc(-c2ccc(C(C)(C)C)cc2)nn1
1.1	Cc1ccccc1-c1cc2nc(NCCOc3ccccc3Cl)n(C)c(=O)c2s1
-5.6	O=C1O[C@@H](c2ccccc2)C[C@@H](O)[C@H](O)CCCc2ccccc21
-1.2	CC1(C(=O)N2CCCCC2)CCN1C(=O)c1ccccc1CCc1ccccc1 (stereo unspecified)
-0.3	Cc1ccc([C@H]2C[C@@H](O)[C@H](n3cc(-c4ccc(F)cc4)nn3)CN2C(=O)c2cccs2)cc1
3.1	O=C(NC1CCCC1)C1c2ccccc2OCC(=O)N1Cc1cccnc1 (stereo unspecified)
-1.4	CCCNC(=O)C1(C)CCCN(C(=O)c2cccc(C#N)c2)C1 (stereo unspecified)

# (more compounds)
HNF4A DNA FP	canonical_smiles
4.0	CC(C)(C)c1ccc(S(=O)(=O)NC(=O)C2(C)CCN2C(=O)Cc2cccs2)cc1 (stereo unspecified)
-4.4	Cc1nc(C(F)(F)F)ccc1C(=O)N1CCC1(C)C(=O)NS(=O)(=O)c1cccc(Cl)c1 (stereo unspecified)
-2.4	CC(=O)Nc1cccc(-c2ccnc3c2CC(C)(C(=O)Nc2ccc(Cl)cc2)O3)c1 (stereo unspecified)
-2.6	CC1(C(=O)NS(=O)(=O)C2CC2)CCN(C(=O)COc2ccc(Cl)cc2Cl)C1 (stereo unspecified)
3.1	OC[C@@H]1CN(Cc2ccc(-c3ccccc3)cc2)C[C@H](n2cnc3c(Nc4ccccc4)ncnc32)O1
1.8	Cc1noc(C)c1NC(=O)Nc1ccc2c(c1)C(=O)N([C@H](C)CO)C[C@@H](C)[C@@H](CN(C)S(=O)(=O)c1cn(C)cn1)OCCCC[C@H](C)O2
2.8	COc1cccc(-c2cnc(C(O)c3cccc(CN4CCCCC4)c3)[nH]2)c1 (stereo unspecified)
18	c1ccc(-c2nc3ccccc3n2C(c2ccccc2)c2nc3ccccc3[nH]2)cc1 (stereo unspecified)
1.7	Cc1ccc(C(=O)Nc2c(-c3ccc(Cl)cc3)[nH][nH]c2=O)cc1
-3.2	COCOCCn1cc(CN2CCS(=O)(=O)N(Cc3ccc(-c4ccc(OC)c(OC)c4)cc3)C(CC(C)C)C2=O)nn1 (stereo unspecified)
0.7	CCOC(=O)N1CCN(C(=O)C[C@@H]2C[C@@]3(C(=O)OC)CC(C)(C)CC=C3N(CCc3ccc(OC)c(OC)c3)C2=O)CC1
2.8	O=C(Nc1cc(C(F)(F)F)cc(C(F)(F)F)c1)O[C@@H]1c2ccccc2[C@@H]2Cc3csc[n+]3[C@H]12

# (listing goes on)
HNF4A DNA FP	canonical_smiles
-0.2	CCOC(=O)C1CCCN(C(=O)c2cccnc2Oc2ccccc2)CC1 (stereo unspecified)
2.6	Nc1sc(Cc2ccccc2)cc1C(=O)NC1CCCCC1
4.0	Cc1cn([C@H]2C[C@H](O)[C@@H](CCC(=O)NCCCc3ccccc3)O2)c(=O)[nH]c1=O
-3.0	COc1cccc(/C=C/C(=O)OCC(=O)c2ccc[nH]2)c1
4.0	CC1(C(=O)NS(=O)(=O)c2cccc(Cl)c2)CCN1C(=O)C1CC1 (stereo unspecified)
3.5	COc1ccc(-c2nc3ccc(C)cn3c2Cc2cccc(F)c2)cc1OC
-0.1	COc1ccc(S(=O)(=O)NC(=O)C2(C)CCN2C(=O)C2(c3ccccc3)CC2)cc1 (stereo unspecified)
0.1	CC(=O)N1CCCC(C)(C(=O)N(C)Cc2cccc3ccccc23)C1 (stereo unspecified)
-0.7	O=c1[nH][nH]c2c1[C@H](c1ccc(F)cc1)O[C@H](CCc1ccccc1)C2
0.6	CCCC(=O)N1CCC1(C)C(=O)Nc1ccc(OC(F)F)cc1 (stereo unspecified)
6.9	CNc1cccc(-c2cccc(C(=O)N3CCOCC3)c2)n1
9.9	CC(C)CC1C(=O)N(Cc2cn(Cc3ccco3)nn2)CCS(=O)(=O)N1Cc1ccc(-c2ccc(Cl)c(Cl)c2)cc1 (stereo unspecified)

# (more compounds)
HNF4A DNA FP	canonical_smiles
-4.3	O=C(NCc1ccccc1)C1c2ccccc2OCC(=O)N1Cc1cccnc1 (stereo unspecified)
-1.8	CCCCN(C=O)c1c(CC)nc2c(OCc3cc(Cl)cc(Cl)c3)cccn12
1.4	Cc1cc2c(cc1C)-n1nnnc1C(N1CCN(c3ccccn3)CC1)C(c1ccc3c(c1)OCO3)=N2 (stereo unspecified)
-1.7	Cc1nccn1-c1ccc(NC(=O)[C@H]2O[C@@H](n3cnc4c(N)ncnc43)[C@H](O)[C@@H]2O)cc1
-4.0	C[C@H](CO)N1C[C@H](C)[C@H](CN(C)C(=O)c2cc(-c3ccccc3)on2)OCc2cnnn2CCCC1=O
-0.7	CCOC(=O)[C@]12CCC=C1N(Cc1ccco1)C(=O)[C@H](CC(=O)NCc1cccc3ccccc13)C2
-0.7	C(=C\c1ccccc1)/CN1CCN(C(c2cccc3ccccc23)c2nnnn2-c2ccc3c(c2)OCCO3)CC1 (stereo unspecified)
-2.4	CC(C)c1cc(C(=O)NC2CCCCCC2)c2ccccc2n1
7.1	Cc1ccc(N2CCN(C(CCc3ccccc3)C(=O)Nc3c(C)cccc3C)CC2)cc1 (stereo unspecified)
-0.4	CN(CCO)c1ccc2c(c1)OC[C@@H](Cc1ccccc1)NS2(=O)=O
-1.2	CC1(C(=O)NCc2ccc3c(c2)OCO3)CCN1C(=O)Cc1ccc(Cl)cc1Cl (stereo unspecified)
1.4	O=c1cccc(-c2ccc3ccccc3c2)o1

# The list goes on.
HNF4A DNA FP	canonical_smiles
-2.6	CCCCn1nnnc1C1(C)CCC(=O)N1Cc1cc(OC)ccc1OC (stereo unspecified)
3.4	O=C(COc1ccc(Br)cc1)N(Cc1nnc(-c2ccccc2Cl)o1)C1CC1
6.0	CN(C)CC(=O)N[C@@H]1CC[C@@H](CCNS(=O)(=O)c2ccccc2)O[C@@H]1CO
4.4	CCNC(=O)C1(C)CCN(Cc2ccc(C(=O)OCC)o2)C1 (stereo unspecified)
-2.1	O=C(Nc1ccc2c(c1)OCO2)c1csc(COCCO)n1
1.4	CCCCCCSc1ccc(-c2nc3ccc(C)cn3c2NCCCC)cc1OC
2.5	CC1(C(=O)NS(=O)(=O)c2ccc(Cl)cc2)CCN1C(=O)Cc1cc(F)ccc1F (stereo unspecified)

# 3 compounds already listed, ordered by the number in HNF4A DNA FP, low to high:
canonical_smiles | HNF4A DNA FP
O=C(Nc1ccc2c(c1)OCO2)c1csc(COCCO)n1 | -2.1
CC1(C(=O)NS(=O)(=O)c2ccc(Cl)cc2)CCN1C(=O)Cc1cc(F)ccc1F (stereo unspecified) | 2.5
CCNC(=O)C1(C)CCN(Cc2ccc(C(=O)OCC)o2)C1 (stereo unspecified) | 4.4

# A draw from above in order of number of heavy atoms, falling:
HNF4A DNA FP	canonical_smiles
3.4	O=C(COc1ccc(Br)cc1)N(Cc1nnc(-c2ccccc2Cl)o1)C1CC1
-2.6	CCCCn1nnnc1C1(C)CCC(=O)N1Cc1cc(OC)ccc1OC (stereo unspecified)
4.4	CCNC(=O)C1(C)CCN(Cc2ccc(C(=O)OCC)o2)C1 (stereo unspecified)
